Assay outcomes from PubChem.
MLL AF4-AF9 inh: inhibitors of human MLL-AF4/AF9 interaction; P42568; AlphaScreen, biotin-AF4 peptide binding to FLAG-AF9; inhibition, % at 10 µM; actives 0.47% (n = 350,000);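 active means every replicate reaching a set inhibition limit, whatever the replicate mean, cut at about 25% in these data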;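 further: 0% = plate neutral control median and 100% = total signal loss; the record names both 10 and 1 µM as test concentration; the first replicate is given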
Target sequence (P42568 whole entry, looked up): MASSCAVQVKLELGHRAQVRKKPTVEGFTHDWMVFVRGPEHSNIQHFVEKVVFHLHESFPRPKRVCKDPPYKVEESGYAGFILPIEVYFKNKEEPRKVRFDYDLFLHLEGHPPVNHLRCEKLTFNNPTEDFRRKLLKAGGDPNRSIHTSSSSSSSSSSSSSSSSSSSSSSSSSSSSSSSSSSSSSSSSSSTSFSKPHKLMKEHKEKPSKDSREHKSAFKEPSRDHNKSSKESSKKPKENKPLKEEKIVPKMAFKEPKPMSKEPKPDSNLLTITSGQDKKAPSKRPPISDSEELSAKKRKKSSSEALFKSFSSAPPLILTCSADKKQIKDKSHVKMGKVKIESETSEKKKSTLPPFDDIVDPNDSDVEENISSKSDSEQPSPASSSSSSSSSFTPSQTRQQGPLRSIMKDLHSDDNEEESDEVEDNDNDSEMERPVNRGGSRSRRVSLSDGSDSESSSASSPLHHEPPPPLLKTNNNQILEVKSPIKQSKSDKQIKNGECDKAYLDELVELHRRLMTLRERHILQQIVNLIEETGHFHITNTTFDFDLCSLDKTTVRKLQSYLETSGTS
* hit, by the source's call. The list is partial. The share of hits here may be higher or lower than overall.

SMILES	MLL AF4-AF9 inh
CCOC(=O)N1CCN(C(=O)C[C@@H]2C[C@@]3(C(=O)OCC)CCC=C3N(CCC3=CCCCC3)C2=O)CC1	-2.9
COCC#Cc1ccc([C@@H]2[C@H]3CN(S(=O)(=O)c4ccc(OC)cc4)CCCCN3[C@H]2CO)cc1	-2.9
O=C(C[C@H]1C[C@H]2c3cc(NS(=O)(=O)c4ccccc4)ccc3O[C@H]2[C@@H](CO)O1)NCC(F)(F)F	0.0
CC(=O)N(C)C[C@@H]1Oc2ncc(-c3cncnc3)cc2C(=O)N([C@@H](C)CO)C[C@H]1C	-2.5
CC(=O)N1[C@@H](CO)[C@@H](c2ccccc2)[C@@H]1CN(C)C(=O)c1ccccc1F	-9.4
COc1cccc(S(=O)(=O)N[C@@H]2CC[C@H](CCn3cc(-c4ccccc4)nn3)O[C@H]2CO)c1	-0.9
O=C(C[C@@H]1CC[C@@H]2[C@H](COC[C@H](O)CN2C(=O)c2ccccc2)O1)NCCCN1CCOCC1	-6.0
COc1ccc(CN(C)C[C@H]2Oc3ccc(NC(=O)Nc4ccc(OC)cc4)cc3CC(=O)N([C@H](C)CO)C[C@H]2C)cc1	6.6
CCC(=O)N1C[C@H](C)[C@H](OC)CN(C)C(=O)c2cc(NC(=O)c3ccc(F)cc3)ccc2OC[C@@H]1C	3.4
COc1ccc2c3c([nH]c2c1)[C@@H](CO)N(C(=O)Cc1ccccc1)CC31CN(C)C1	-0.6
CN(C)C(=O)C[C@H]1CC[C@H]2[C@@H](COC[C@H](O)CN2CC2CCCCC2)O1	-3.2
CO[C@@H]1CC[C@H]2CCN(C)C(=O)[C@H](C)[C@H](OC)CN(C)C(=O)c3cccc(C#N)c3OC[C@@H]1O2	1.9
N#C[C@@H]1[C@@H](c2ccccc2C2=CCCC2)[C@H](CO)N1C(=O)C1CCC1	-2.0
CN1C(=O)c2cc(NC(=O)C3CCOCC3)ccc2OC[C@H]2O[C@@H](CC(=O)O)CC[C@@H]21	-3.8
O=C1C[C@@H]2c3c(cccc3CN1Cc1ccccc1Br)C[C@@H](O)[C@H]2O	-0.6
COC(=O)c1c(N)[nH]c(C(=O)c2ccccc2)c1-c1ccccc1Br	-1.3
CCCCCCN1CCN(C2CN(Cc3cn(Cc4ccccc4)nn3)S(=O)(=O)C2)CC1 (stereo not given)	-0.7
COc1ccccc1S(=O)(=O)N[C@@H]1C=C[C@H](CC(=O)N2CCCCC2)O[C@H]1CO	-13
CO[C@H]1CN(C)C(=O)c2cc(NS(C)(=O)=O)ccc2OC[C@@H](C)N(C(=O)c2ccc3c(c2)OCO3)C[C@H]1C	-1.8
O=C(C[C@H]1CC[C@@H]2[C@H](COC[C@@H](O)CN2S(=O)(=O)c2ccccc2F)O1)NCc1ccccc1Cl	2.2
COc1ccccc1CN1CC[C@@H]2[C@H](CO)Nc3ccc(C#Cc4ccccc4)cc3[C@@H]21	10
CO[C@@H]1CN(C)C(=O)c2ccc(NC(=O)c3ccc4c(c3)OCO4)cc2OC[C@@H](C)N(Cc2ccc3c(c2)OCO3)C[C@H]1C	2.5
CCCNC[C@@H]1[C@@H](c2ccc(C3=CCCCC3)cc2)[C@@H](CO)N1C(=O)C1CCC1	6.2
COc1ccccc1-c1ccc2n(c1=O)C[C@@H]1[C@@H](CO)[C@H](C(=O)NCc3ccccc3F)N[C@H]21	0.9
CC(=O)N1CCCCN2[C@H](CO)[C@@H](c3ccc(-c4ccc(C)cc4)cc3)[C@@H]2C1	3.4

Ordered by the number under MLL AF4-AF9 inh (largest number first): six from the list above.
SMILES	MLL AF4-AF9 inh
CCC(=O)N1C[C@H](C)[C@H](OC)CN(C)C(=O)c2cc(NC(=O)c3ccc(F)cc3)ccc2OC[C@@H]1C	3.4
CO[C@@H]1CN(C)C(=O)c2ccc(NC(=O)c3ccc4c(c3)OCO4)cc2OC[C@@H](C)N(Cc2ccc3c(c2)OCO3)C[C@H]1C	2.5
COc1ccccc1-c1ccc2n(c1=O)C[C@@H]1[C@@H](CO)[C@H](C(=O)NCc3ccccc3F)N[C@H]21	0.9
N#C[C@@H]1[C@@H](c2ccccc2C2=CCCC2)[C@H](CO)N1C(=O)C1CCC1	-2.0
CCOC(=O)N1CCN(C(=O)C[C@@H]2C[C@@]3(C(=O)OCC)CCC=C3N(CCC3=CCCCC3)C2=O)CC1	-2.9
CC(=O)N1[C@@H](CO)[C@@H](c2ccccc2)[C@@H]1CN(C)C(=O)c1ccccc1F	-9.4

Some values from above.
Result of COc1cccc(S(=O)(=O)N[C@@H]2CC[C@H](CCn3cc(-c4ccccc4)nn3)O[C@H]2CO)c1 under MLL AF4-AF9 inh: -0.9
Result of COc1ccccc1CN1CC[C@@H]2[C@H](CO)Nc3ccc(C#Cc4ccccc4)cc3[C@@H]21 under MLL AF4-AF9 inh: 10

Additional results.
SMILES	MLL AF4-AF9 inh
Cc1ccccc1S(=O)(=O)N1CC[C@@H]2[C@@H](CO)Nc3ccc(-c4ccc(C#N)cc4)cc3[C@@H]21	-6.0
COCC(=O)N1[C@@H](C#N)[C@@H](c2ccc(C3=CCCC3)cc2)[C@@H]1CO	0.4
O=C(OCc1ccccc1)N1C[C@H](O)[C@H](O)C[C@@H]1c1c(Cl)cccc1Br	2.4
CCCNC(=O)N[C@H]1C=C[C@@H](CC(=O)NC2CCCCC2)O[C@H]1CO	-0.3
C[C@H]1[C@H](c2ccccc2)Oc2cccc(NCCc3ccccc3)c2S(=O)(=O)N1Cc1ccc(F)cc1	-0.5
CCC(=O)Nc1ccc2c(c1)C(=O)N(C)C[C@H](OC)[C@@H](C)CN(C(C)=O)[C@H](C)CO2	-0.7
CC=Cc1ccc2n(c1=O)C[C@H]1[C@H](CO)[C@@H](C(=O)NCC(F)(F)F)[C@@H]2N1C(=O)C1CC1 (mixture of isomers)	-3.0
CCCNC(=O)N1CC2(CN(Cc3cccc(OC)c3)C2)c2c([nH]c3cc(OC)ccc23)[C@@H]1CO	32*
C[C@H]1CCCCO[C@H](CN(C)Cc2ccccc2)[C@@H](C)CN([C@@H](C)CO)C(=O)c2cc(NC(=O)c3ccncc3)ccc2O1	-11
CCC(=O)N1[C@H](CO)[C@H]2c3ccccc3N(C(=O)c3ccc4c(c3)OCO4)C[C@H]21	-1.4
C[C@H]1CN([C@@H](C)CO)C(=O)c2cc(C#CCc3ccccc3)cnc2O[C@H]1CN(C)Cc1cccnc1	-0.4
O=C(NCC1CC1)c1ccc2sc([C@@H]3O[C@H](CO)[C@H](O)[C@H](O)[C@H]3O)nc2c1	-3.8
N#C[C@@H]1[C@@H](c2ccc(C3=CCCCC3)cc2)[C@@H](CO)N1C(=O)c1cccc(F)c1	-1.1
COC(=O)c1c2oc(c1C(=O)OC)C(=O)N(C)Cc1cn(nn1)C[C@@H](C)NC(=O)N[C@H](CO)CC2	-0.2
COc1ccccc1-c1cn(CC[C@H]2CC[C@H](NC(=O)c3cnccn3)[C@@H](CO)O2)nn1	2.1
CO[C@H]1CN(C)C(=O)c2cc(NS(=O)(=O)CC(F)(F)F)ccc2OC[C@@H](C)N(C)C[C@H]1C	1.5
COc1ccc(C(=O)N2CCC(C)(C(=O)O)C2)c(OC)c1 (stereo not given)	0.1
C[C@H](CO)N1C[C@H](C)[C@@H](CN(C)C(=O)NC2CCCCC2)OCCCC[C@H](C)Oc2ccc(NC(=O)Nc3ccccc3)cc2C1=O	-1.7
C[C@@H]1CN([C@@H](C)CO)C(=O)c2cc(NC(=O)CCN3CCOCC3)ccc2O[C@H]1CN(C)Cc1ccc(Oc2ccccc2)cc1	6.2
CN(C)C(=O)c1cccc(-c2ccc3c(c2)[C@@H]2[C@@H](CCN2S(=O)(=O)c2cn(C)cn2)[C@H](CO)N3)c1	-0.2
C[C@@H]1CN([C@H](C)CO)C(=O)CCCn2nncc2CO[C@@H]1CN(C)Cc1cccc2c1OCCCO2	-1.4
C/C=C/c1ccc([C@H]2[C@@H](CO)N(S(C)(=O)=O)[C@@H]2CN(CCC)C(C)=O)cc1	-3.6
CC(C)NC(=O)N[C@H]1CC[C@@H](CCNS(=O)(=O)c2ccc(F)cc2)O[C@@H]1CO	-2.1
CCCNC(=O)[C@H]1[C@H](CO)[C@H]2Cn3c(ccc(-c4cncnc4)c3=O)[C@@H]1N2C(=O)Nc1ccccc1	-0.9
CC1(C(=O)NS(=O)(=O)c2ccc(Cl)s2)CCN1C(=O)Cc1ccc(Cl)cc1Cl (stereo not given)	-1.8
SMILES	MLL AF4-AF9 inh
Cc1noc(C)c1NC(=O)Nc1ccc2c(c1)CC(=O)N([C@H](C)CO)C[C@H](C)[C@H](CN(C)CC1CCCCC1)O2	-1.7
COCCNc1nc(Oc2ccc(CC(=O)OC)cc2)c2sc(-c3ccccc3)cc2n1	-3.3
F[B-](F)(F)c1cncc2ccccc12	2.0
CC(O)(c1cccc(F)c1)c1nc(-c2cc(F)cc(F)c2)cs1 (stereo not given)	-8.5
C[C@@H]1CN([C@H](C)CO)C(=O)c2cc(NC(=O)Nc3ccc(C(F)(F)F)cc3)ccc2O[C@@H]1CN(C)C	1.9
C[C@@H]1CN([C@H](C)CO)C(=O)c2cc(NC(=O)C3CCCCC3)ccc2O[C@@H](C)CCCCO[C@H]1CN(C)C(=O)Nc1ccc2c(c1)OCO2	2.7
C/C=C/c1ccc([C@@H]2[C@H](CO)N(Cc3cncnc3)C23CN(C(=O)COC)C3)cc1	-1.0
C[C@@H]1CN([C@H](C)CO)C(=O)c2cccc(NC(=O)c3cnccn3)c2O[C@H]1CN(C)CC1CCCCC1	-0.3
Cc1ccc(S(=O)(=O)Nc2ccc3c(c2)C(=O)N([C@@H](C)CO)C[C@@H](C)[C@H](CN(C)C(=O)Nc2c(C)noc2C)OCCCC[C@H](C)O3)cc1	-2.2
O=C(NCC(F)(F)F)[C@@H]1[C@@H](CO)[C@@H]2Cn3c(ccc(-c4cccnc4)c3=O)[C@@H]2N1Cc1ccncc1	-1.3
C/C=C/c1ccc2c(c1)O[C@H](CN(C)C)[C@H](C)CN([C@@H](C)CO)S2(=O)=O	-1.9
C[C@@H]1CN([C@H](C)CO)C(=O)c2cc(C3=CCCCC3)cnc2O[C@@H]1CN(C)C(=O)CN1CCOCC1	-4.7
Cn1cnc(S(=O)(=O)N[C@@H]2C=C[C@@H](CC(=O)NCC3CC3)O[C@H]2CO)c1	-2.7
COCC(=O)Nc1ccc2c(c1)C(=O)N(C)[C@H]1CC[C@H](CC(=O)Nc3ccccc3F)O[C@@H]1CO2	0.0
CCC(=O)N(C)C[C@@H]1Oc2cc(-c3cccc(F)c3)ccc2S(=O)(=O)N([C@@H](C)CO)C[C@H]1C	2.1
O=C(C[C@@H]1CC[C@@H]2[C@H](COC[C@H](O)CN2CCc2ccccc2)O1)NCc1ccc(Oc2ccccc2)cc1	4.5
Cc1noc(C)c1S(=O)(=O)N(C)C[C@@H]1Oc2ccc(NS(=O)(=O)c3ccc(Cl)cc3)cc2CC(=O)N([C@@H](C)CO)C[C@@H]1C	7.0
CCCC#Cc1cnc2c(c1)C(=O)N([C@@H](C)CO)C[C@@H](C)[C@@H](CN(C)S(C)(=O)=O)O2	-8.4
COc1cccc(C(=O)Nc2ccc3c(c2)OC[C@H](C)N(C(=O)C2CCCC2)C[C@H](C)[C@@H](OC)CN(C)C3=O)c1	-5.5
Cc1noc(C)c1NC(=O)Nc1ccc2c(c1)C(=O)N([C@H](C)CO)C[C@@H](C)[C@H](CN(C)C)OCCCC[C@H](C)O2	-3.2
COc1cc(-c2cc(NC=O)c3ncc(-c4ccccc4)n3c2)cc(OC)c1OC	-2.9
CCC(=O)N1C[C@@H](C)[C@H](OC)CN(C)C(=O)c2ccc(NC(=O)NC(C)C)cc2OC[C@H]1C	-1.2
C[C@H](CO)N1C[C@H](C)[C@H](CN(C)C(=O)C2CCCCC2)Oc2ncc(-c3cccc(C#N)c3)cc2C1=O	0.5
Cc1noc(C)c1S(=O)(=O)Nc1ccc2c(c1)C(=O)N([C@H](C)CO)C[C@H](C)[C@H](CN(C)S(=O)(=O)c1ccccc1)OCCCC[C@@H](C)O2	1.2
C[C@@H]1CN([C@@H](C)CO)C(=O)c2cc(C#C[C@@H](C)O)cnc2O[C@@H]1CN(C)Cc1cccc(F)c1	-1.6
SMILES	MLL AF4-AF9 inh
CO[C@@H]1CN(C)C(=O)c2ccc(NC(=O)CC(F)(F)F)cc2OC[C@@H](C)N(C(C)=O)C[C@@H]1C	-3.5
C[C@@H]1CCCCO[C@H](CN(C)S(=O)(=O)c2ccccc2)[C@H](C)CN([C@H](C)CO)C(=O)c2cc(NS(=O)(=O)c3ccc(F)cc3)ccc2O1	-0.7
CCOC(=O)C1(C)CCCN1C(=O)c1ccc(OC)c(F)c1 (stereo not given)	1.4
CC(=O)N1[C@@H]2c3ccc(-c4ccccc4)c(=O)n3C[C@H]1[C@H](CO)[C@H]2C(=O)NCCCN1CCOCC1	-0.7
CCCNC(=O)N(C)C[C@@H]1Oc2cc(C#CC(C)C)ccc2S(=O)(=O)N([C@H](C)CO)C[C@@H]1C	0.7
C[C@H]1CN([C@@H](C)CO)C(=O)c2cc(/C=C/c3ccccc3)cnc2O[C@@H]1CN(C)Cc1cncnc1	4.3
CCC(=O)N1CC2(CCN(C(=O)Nc3ccccc3F)CC2)c2c([nH]c3cc(OC)ccc23)[C@H]1CO	5.2
C[C@H]1CN([C@@H](C)CO)C(=O)c2cc(C#CC3CCCCC3)cnc2O[C@H]1CN(C)C(=O)c1ccncc1	-2.2
CC(C)C[C@@H](CN1CCC[C@H]1CN1C(=O)C(=O)NC[C@@H]1Cc1ccc(O)cc1)N1C[C@H](Cc2ccc(O)cc2)N(CC2CCCCC2)C(=O)C1=O	-1.4
COc1ccc2c3c([nH]c2c1)[C@@H](CO)N(C(=O)C1CCC1)CC31CCN(C(=O)NC(C)C)CC1	1.1
O=C(NC[C@@H]1CC[C@@H]2[C@@H](CN2Cc2cccc(Cl)c2)O1)C1CC1	-2.9
CCCC(=O)Nc1ccc2c(c1)C(=O)N(C)C[C@@H](OC)[C@@H](C)CN(CCC(F)(F)F)[C@H](C)CO2	-0.1
COc1ccccc1NC(=O)N[C@@H]1CC[C@@H](CC(=O)NCc2ccc(Cl)c(Cl)c2)O[C@@H]1CO	-0.3
